Assay outcomes (PubChem)
Ecoli rRNA inh – inhibitors of bacterial rRNA selective over humanized ribosomes. E. coli WT GFP vs humanized-ribosome RFP mutants, fluorescence, 24 h; hits give low values; DMSO median 0, no signal -100. GFP signal change (wild-type ribosome), % (no concentration beside the values). 350,000 tested, 1.6% active. AID 720706;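 active = significant combined selectivity score with lowered wild-type GFP, culture density cut under 30%, mutant RFP and density less affected; inactive = any of these conditions unmet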; note: one replicate is shown; some compounds called inactive have numbers as strong as hits
Beta apoptosis – beta cell apoptosis inhibition. INS-1E cytokine-induced death, ATP luminescence, 48 h; percent of positive-control rescue, neutral wells zero. protection from apoptosis, % (no concentration beside the values). 300,000 tested, 0.8% active;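 active = all replicates at 75% or more, or half of them and the mean; inconclusive = half reach 75% but not the mean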;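 note: 0% = cytokine-treated negative control wells and 100% = positive control rescue; higher means more ATP so stronger rescue from cytokine killing; wells of about 40 µL received 100 nL stock; the first replicate is given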
Vif TR-FRET – HIV-1 Vif–A3G interaction blockers – biochemical, TR-FRET, GST-Vif 1-94, biotin-A3G peptide, dose response retest, primary screen (AID 1117319); TR-FRET GST-Vif / biotin-A3G peptide binding; higher % means a stronger effect; test concentration not given here; strong numbers were not always called active; inhibition, %, or IC50 in µM where a hit was titrated; 260,000 tested, 0.57% active;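 active = above the screen mean plus three standard deviations and confirmed in dose response; inconclusive = results disagree or hit not tested in dose response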;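 note: Vif residues 1-94 fused to GST binding biotinylated APOBEC3G peptide 110-148; 0% = full assay without inhibitor and 100% = GST in place of GST-Vif; retest series ran down from 100 µM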
Calb FLC – affects C. albicans growth with fluconazole. C. albicans CaCi-2 (fluconazole-resistant clinical isolate) + fluconazole, Alamar Blue growth, 48 h. growth inhibition, % (concentration not given with the values). 300,000 tested, 0.57% active;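 active = most replicates above 75%; inconclusive = exactly half above 75%; inactive = most below 75%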;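 note: all wells also contain fluconazole at 8 µg/ml as a sub-toxic cotreatment; 0% = median of DMSO wells and 100% = median of geldanamycin control wells; wells of about 8 µL received 7.5 nL stock; the first replicate is given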
T cruzi inh – blocks replication of Trypanosoma cruzi. T. cruzi beta-gal in NIH3T3, luminescence, 90 h. inhibition, % (concentration not given with the values). 300,000 tested, 1.4% active. AID 1885;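 active = mean inhibition across valid replicates above about 55%, limit read from the data; inconclusive = mean below that limit but half or more replicates reach it; inactive = mean below it, under half of replicates reach it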;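 note: signal also drops with host cell toxicity which is not excluded here; 0% = plate median of DMSO wells and 100% = zero luminescence signal; higher percent means less beta-gal luminescence so fewer parasites; stock transfer was 50 nL into about 50 µL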
Bfl-1 A1 inh – inhibitors of the anti-apoptotic protein A1, read as caspase activation; 330,000 tested, 0.066% active; AID 2462; caspase activation, % (no concentration beside the values); MEF A1-2A-BIM cells, Caspase-Glo 3/7 luminescence, 3 h; percent of clofoctol response, vehicle zero;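 active = over half of replicate activation scores above 10%, or exactly half above 10 with the replicate mean above 10; inconclusive = replicate mean below 10 yet half the replicates above 10; inactive = over half of replicates below 10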;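 note: wells of about 30 µL received 50 nL stock; many hits fall short of the cut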
RanGTP-Imp inh – disruptors of Ran-importin-beta complex formation – biochemical, FRET, CFP-Ran, YFP-importin-beta, homogeneous, primary screen; cell-free CFP-Ran/YFP-importin-beta FRET ratio; inhibition, % (test concentration not listed); 300,000 tested, 1.1% active; AID 2216;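 active = most replicates above 15%; inconclusive = exactly half above 15%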;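 note: 0% = DMSO wells and 100% = Ran loaded with GDP instead of GTP; wells of about 40 µL received 100 nL stock; the first replicate is given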
MLL AF4-AF9 inh – MLL-AF4/AF9 protein interaction inhibition; P42568; AlphaScreen, biotin-AF4 peptide binding to FLAG-AF9; inhibition, % at 10 µM; 350,000 tested, 0.47% active;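 active = every replicate reaching a set inhibition limit, whatever the replicate mean, cut at about 25% in these data; inconclusive = mean inhibition reaches that limit but some replicates miss it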;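 note: 0% = plate neutral control median and 100% = total signal loss; the record names both 10 and 1 µM as test concentration; the first replicate is given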
Target sequence (P42568 whole entry, looked up): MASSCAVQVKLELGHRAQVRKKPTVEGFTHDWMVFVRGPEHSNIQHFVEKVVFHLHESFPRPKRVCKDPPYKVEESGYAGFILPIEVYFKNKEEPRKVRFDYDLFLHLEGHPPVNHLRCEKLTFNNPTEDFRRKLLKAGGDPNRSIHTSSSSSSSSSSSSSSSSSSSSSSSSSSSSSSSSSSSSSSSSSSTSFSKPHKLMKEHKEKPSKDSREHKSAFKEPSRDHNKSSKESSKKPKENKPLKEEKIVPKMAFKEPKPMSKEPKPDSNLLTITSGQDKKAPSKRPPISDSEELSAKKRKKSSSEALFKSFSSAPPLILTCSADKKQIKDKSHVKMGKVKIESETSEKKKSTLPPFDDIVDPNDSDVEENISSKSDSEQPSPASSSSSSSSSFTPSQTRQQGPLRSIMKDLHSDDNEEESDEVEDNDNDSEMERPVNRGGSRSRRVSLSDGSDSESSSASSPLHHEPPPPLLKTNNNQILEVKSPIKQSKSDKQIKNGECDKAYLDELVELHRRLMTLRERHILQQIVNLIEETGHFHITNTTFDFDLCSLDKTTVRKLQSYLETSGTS
Ecoli rRNA inh OD600 – recorded beside Ecoli rRNA inh, whose call it bears; OD600 change, %; measured here: OD600 growth;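 optical density of the mix in the first replicate; 0 = DMSO median and -100 = no signal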
Ecoli rRNA inh RFP – recorded beside Ecoli rRNA inh, whose call it bears; RFP signal change, %; measured here: RFP humanized mutant strains;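 first replicate; 0 = DMSO median and -100 = no signal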
Active calls of the source: *; ? = inconclusive; / = no result given; & = joins results of further samples.

SMILES	Ecoli rRNA inh	Ecoli rRNA inh RFP	MLL AF4-AF9 inh	Calb FLC	RanGTP-Imp inh	Vif TR-FRET	Beta apoptosis	Ecoli rRNA inh OD600	T cruzi inh	Bfl-1 A1 inh
Cc1cccc(N2CCN(S(=O)(=O)c3cccc4nonc34)CC2)c1C	/	/	/	-7.7	-1.5	23.3%	-9.3	/	10.4	1.0
CCOC(=O)c1cnn(CCOC(=O)c2ccc(F)cc2)c1NC(=O)c1ccc(F)cc1	10.9	5.5	0.1	44.6	-0.1	8.3%	-7.1	11.6	4.9	-0.5
O=C(NC12CC3CC(CC(C3)C1)C2)c1ccc(Br)o1	-7.5	0.2	5.5	-23.8	-3.2	/	6.7	-9.9	-3.6	-5.3
COc1ccc(N2CCN(C(c3ccccc3OC)c3nnnn3Cc3ccco3)CC2)cc1 (stereo unspecified)	/	/	/	-2.8	2.6	?	-0.3	/	10.1	0.5
Cc1ccsc1-c1nc(CSCC(=O)NCCN2CCCC2)c(C)o1	/	/	/	-2.5	-0.2	0.5%	1.0	/	45.7	0.3
CSc1nc2ccccc2c(=O)n1C1CCCCC1	-11.9	-12.8	-0.3	2.3	-1.3	0.3%	/	-18.6	8.2	0.6
CC(C)NC(=O)C1CCCN(S(=O)(=O)c2cccs2)C1 (stereo unspecified)	/	/	/	-8.2	-1.0	>100µM*	1.6	/	-1.1	1.1
CCOc1ccc(C(=O)c2cnc3ccccc3c2N2CCN(CC)CC2)cc1	12.7	-0.7	5.7	-13.8	-4.0	2.8%	1.1	19.4	5.4	0.3
N#Cc1ccccc1NC(=O)COc1ccc2c(c1)OCO2	-5.0	-2.0	-3.7	-8.2	4.5	/	-0.6	2.5	19.3	0.7
CC1CCN(S(=O)(=O)c2ccc(NC(=O)Cn3nnc(-c4ccccc4)n3)cc2)CC1	/	/	/	-14.4	0.6	5.1%	57.9	/	49.3	-0.2
Cn1cccc1Cc1nnc(SCC(N)=O)n1-c1ccc(F)cc1	8.5	-0.2	6.7	2.0	-2.1	10.4%	-7.8	14.4	-8.4	0.3
Cc1ccc(C(=O)Cn2c(C(=O)OCCO)cc3ccccc32)cc1	-4.7	-1.8	-0.8	1.0	-2.9	/	-5.8	-5.7	-8.8	?
CCc1ccccc1N/C(=N\S(=O)(=O)c1ccccc1)C(F)(F)F	/	/	/	6.1	-3.5	2.1%	4.4	/	7.7	0.2
Cc1ccc(NC(=O)CS(=O)CC(=O)Nc2ccc3c(c2)OCO3)cc1Cl (stereo unspecified)	/	/	/	5.3	4.1	1.1%	3.0	/	-4.6	-0.5
CN1CCN(S(=O)(=O)c2ccc(Sc3nc4ccccc4[nH]3)c3nsnc23)CC1	/	/	/	-13.2	0.9	20.8%	-0.1	/	-3.2	-0.2
Cc1ccc(NC(=O)c2cccs2)cc1NC(=O)c1cccc(F)c1	-14.1	-2.0	-0.5	2.3	-1.5	/	5.9	-17.0	-20.9	0.8
C=CCn1c(COc2ccc(CC)cc2)nnc1SCC(=O)N(C)C1CCS(=O)(=O)C1 (stereo unspecified)	/	/	/	-4.8	-3.5	-3.1%	4.0	/	-6.7	1.6
CN(C)CCN1C(=O)C2C3C=CC(C3)C2C1=O (stereo unspecified)	3.4	-0.3	-4.7	7.6	0.6	16.1%	-0.6	5.0	-21.2	0.5
Cc1[nH]c2ccccc2c1C(=O)CSc1nc2ncc(Cl)cc2[nH]1	8.9	0.6	-1.1	4.9	-3.8	-48.4%	19.9	10.7	1.9	-1.1
C[C@@H]1CCC[C@@]2(O[C@@H](CCO)C[C@@H](O)[C@@H]2O)O1	5.4	-4.9	-18.0	-1.8	4.9	/	-2.3	4.0	-7.7	2.3
CCOC(=O)C1C(=O)C=C(c2cccc(NS(C)(=O)=O)c2)CC1c1ccco1 (stereo unspecified)	/	/	/	27.5	-0.3	/	-2.3	/	0.3	0.4
COc1ccc(CNC(=O)CCS(=O)(=O)c2ccc3c(c2)CC(C)N3C(=O)C2CC2)cc1 (stereo unspecified)	-2.1	-2.3	-0.9	-10.5	-2.0	2.1%	1.3	-7.4	-0.8	0.5
CC(=O)Oc1ccc(C(c2ccc(OC(C)=O)cc2)c2ccccn2)cc1	5.6	-4.1	-2.6	-6.0	1.8	?	/	-9.5	0.7	/
OC[C@H]1O[C@@H]2O[C@H]3[C@H](O)[C@@H](O)[C@@H](O[C@H]4[C@H](O)[C@@H](O)[C@@H](O[C@H]5[C@H](O)[C@@H](O)[C@@H](O[C@H]6[C@H](O)[C@@H](O)[C@@H](O[C@H]7[C@H](O)[C@@H](O)[C@@H](O[C@H]1[C@H](O)[C@H]2O)O[C@@H]7CO)O[C@@H]6CO)O[C@@H]5CO)O[C@@H]4CO)O[C@@H]3CO	4.7	-1.7	-5.5	-0.6	1.7	/	-4.3	-1.6	-5.7	0.2
COc1ccc(CNC(=O)CNS(=O)(=O)c2ccc(Cl)cc2)cc1	4.1	-1.5	2.7	-0.4	-1.9	?	-4.4	6.9	9.5	0.0
COC(=O)C1(C)CCC(C(=O)Nc2ccccc2)C1(C)C (stereo unspecified)	-2.1	-2.3	1.5	-1.1	4.6	/	6.0	-2.7	21.9	-0.2
O=C(N/N=C/c1cc(Cl)cc([N+](=O)[O-])c1O)C(O)(c1ccccc1)c1ccccc1	-10.2	-2.4	16.5	-3.6	0.8	6.8%	22.1	-10.2	25.7	-0.4
Cc1cccc(NC(=O)c2n[nH]c([N+](=O)[O-])c2Br)c1C	-29.0*	2.5*	-8.1	62.8	1.8	-10.8%	4.4	-4.9*	-12.4	-7.3
COc1ccc(Oc2ncnc3c2oc2ccc(Br)cc23)cc1	/	/	/	-7.7	-3.3	/	-0.6	/	-5.6	0.2
Cc1nnc2ccc(-c3cccc(NS(=O)(=O)c4cc(F)ccc4F)c3)nn12	13.7	1.2	-23.6	-4.6	?	0.8%	5.4	7.9	3.2	0.1
Cc1noc(C)c1CSc1ccccc1C(=O)N(C)CC(=O)Nc1cccc(F)c1	-4.9	-1.2	9.2	12.5	2.3	-8.8%	-5.4	-8.9	-1.1	0.3
Cc1nc2c(c(C)nn2-c2ccccc2)c(C)c1Cl	12.9	1.9	0.4	-0.3	1.1	-3.4%	1.3	9.4	5.1	0.3
COC(=O)c1ccc(OCC(O)CN(CCO)CCO)cc1 (stereo unspecified)	/	/	/	-0.6	3.7	-0.6%	-6.1	/	4.6	0.6
O=C(Nc1ccc([N+](=O)[O-])cc1)c1cc(Cl)sc1Cl	9.8	0.5	1.4	0.5	-0.4	-5.0%	/	7.2	-10.8	2.6
Cc1c(C(=O)NCc2ccc3c(c2)OCO3)oc2ccc(S(=O)(=O)N3CCCC3)cc12	/	/	/	-23.4	-1.0	1.5%	2.2	/	5.3	-0.4
CCCCOc1ccccc1NC(=O)c1ccc(=O)[nH]c1	/	/	/	7.2	-3.2	0.7%	2.2	/	-5.4	-0.5
Cc1cc(C)nc(N2CCC(C(=O)Nc3ccc(Oc4ccccc4)cc3)CC2)n1	/	/	/	13.5	4.1	7.2%&-12.4%	-1.3	/	-34.0	-0.6
CC(C)C/C=C1\CCc2c([nH]c3ccccc23)C1=O	3.3	-13.1	-1.1	-0.2	-2.0	-1.7%	6.9	0.7	9.9	-0.3
O=[N+]([O-])c1ccc(N2CCCC2)cc1N1CCCC1	/	/	/	-1.0	-2.4	18.2%	/	/	7.7	0.8
O=C1/C(=C/c2cccc(F)c2)Oc2cc(O)ccc21	2.9	-1.6	-0.6	10.0	-38.5	/	-3.1	2.5	11.2	-3.5
COc1ccc(C2CC(c3ccc(OC)c(OC)c3)=NN2C(=O)c2ccccc2)cc1 (stereo unspecified)	-7.2	7.6	5.4	21.2	3.3	8.3%	-18.6	-5.7	0.5	0.4
O=S(=O)(c1ccc(F)cc1)N1CCCC1	12.6	2.5	-5.5	-0.8	-2.4	-7.0%	-3.0	9.7	3.8	1.0
Cc1nn(-c2ccccc2)c(Cl)c1C(=O)NCc1ccccc1F	-3.6	1.5	-12.4	13.2	-3.1	/	-1.8	-7.3	13.3	0.6
O=C(CSc1cccc[n+]1[O-])c1cccs1	-6.8	-3.6	-4.9	30.5	-1.3	-2.8%	-1.1	-5.1	-22.4	0.1
CCC(Cc1ccccc1)NC(=O)CN(C)S(=O)(=O)c1ccc2c(c1)c(=O)n(C)c(=O)n2C (stereo unspecified)	2.5	0.6	-0.7	-3.6	3.5	-2.0%	-2.9	15.3	-1.2	-5.4
Cc1ccc(OCC(=O)NCCCNC(=O)c2ccncc2)cc1	-1.5	0.6	-2.4	-11.4	-6.6	-5.5%	-3.7	5.2	-20.4	-0.2
CC1(CCc2ccccc2)NC(=O)N(CC(=O)Nc2ccccc2C#N)C1=O (stereo unspecified)	0.7	-1.5	-2.3	/	/	/	3.3	4.1	/	1.6
CCOC(=O)NC(=O)c1cn(Nc2ncc(Cl)cc2C(F)(F)F)c(=O)[nH]c1=O	-6.1	-2.5	-2.2	-5.1	0.7	-5.0%	-3.0	-4.6	-10.4	-0.4
O=C(/C=C/c1ccccc1)N1CCN(S(=O)(=O)c2ccc(F)cc2)CC1	-16.5	-0.8	2.8	2.9	-1.1	-7.8%	0.6	-15.2	3.8	0.2
Cc1occc1C(=O)N/N=C/c1cccc2ccccc12	-7.4	1.1	2.8	2.5	0.9	/	-0.5	-28.0	1.9	-7.3
S=c1nccc(-c2cc(Cl)sc2Cl)[nH]1	/	/	/	2.1	-1.5	-6.0%	-8.1	/	12.8	0.8
COc1ccc(S(=O)(=O)N2CCN(CCc3ccccc3)CC2)c(OC)c1	-8.1	0.4	-14.8	-16.3	0.6	/	-5.8	-8.7	2.2	0.2
CCO[C@H]1OC(C(=O)N2CCN(Cc3ccc4c(c3)OCO4)CC2)=C[C@@H](C(C)(C)C)[C@@H]1CCCO	-30.4	3.5	-0.1	-7.7	-0.2	-2.9%	-3.2	-67.6	19.7	-0.2
Cc1noc2ncnc(Oc3ccc4ccccc4c3)c12	/	/	/	4.5	-0.4	2.5%	-2.0	/	-2.6	0.4
O=C(Nc1cccc(Cl)c1)C1CCCN(c2cnccn2)C1 (stereo unspecified)	-0.4	-2.7	2.5	0.4	2.4	/	-3.4	-3.9	29.5	-1.0
FC(F)(F)c1cccc(-c2ccn3ncnc3n2)c1	1.5	-5.2	-2.0	32.0	-0.4	-14.2%	-8.4	3.2	-0.5	-0.3
COCCOC(=O)C1=C(C)Nc2cc(=O)[nH]c(=O)n2C1c1cccc([N+](=O)[O-])c1 (stereo unspecified)	/	/	/	27.9	-3.0	/	4.4	/	-7.2	0.0

An excerpt, so the mix of outcomes need not match the whole.
